# High-throughput results (PubChem)
# Sa RN4220 lethal: S. aureus RN4220 growth inhibition | inhibition, % (no concentration beside the values) | hit rate 0.33% among 330,000 | OD600, 16 h;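 active = z-score of -3 or lower and OD600 up to 0.18 on both plates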;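 note: plate controls were untreated cells for no effect and reference antibiotic for full effect; stock transfer was 100 nL into about 80 µL; one replicate is shown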
# BJeLR lethal: BJeLR cell viability loss; BJeLR (HRASV12) viability, CellTiter-Glo ATP luminescence, 48 h; reference of the scale not given here; inhibition, % (test concentration not listed); hit rate 0.17% among 300,000;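 active = replicate mean above 50%; inconclusive = above 50% but judged a plate artefact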;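 note: 50 nL library stock added to about 25 µL; numbers are from one replicate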
# ugtP null kill: kills S. aureus RN4220 lacking UgtP | S. aureus RN4220 ugtP deletion, OD600 growth, 16 h; some inactives read as strong as hits | growth inhibition, % (no concentration beside the values) | hit rate 0.54% among 330,000;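 active = z-score under -3 and OD600 up to 0.15 on both plates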;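 note: plate controls were untreated wells for no effect and antibiotic for full effect; wells of about 80 µL received 100 nL stock; the first replicate is given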
# PrP 5UTR inh: inhibition of PrP 5' UTR reporter expression; hit rate 0.35% among 340,000; inhibition, % (no concentration beside the values); cell-based PrP 5' UTR mRNA reporter, plate reader;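 active = every replicate at 50% or more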;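 note: 0 = median of the neutral control wells; tested in H4 reporter cells; numbers are from one replicate; inactives centre near -14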
# Bead autofluor: counter-screen for toxin protease inhibitors: compound fluorescence | hit rate 3.1% among 360,000 | compound autofluorescence counterscreen, microsphere flow cytometry; active compounds read high | fluorescence intensity (no concentration beside the values);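 active = at least 3 SD above the mean of all compounds, about 16000 in these data; inconclusive = too few beads counted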;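 note: 100 nL of 1 mM stock went into each well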
# Mtb hypoxia inh: Mtb hypoxia fluorescent reporter inhibition | hit rate 0.1% among 300,000 | M. tuberculosis hypoxia-regulated fluorescent reporter, fluorescence | fluorescence inhibition, % (concentration not given with the values);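 active = 35 to 45% if threefold the growth effect, above 45% if 1.5-fold the growth effect; inactive = the rest, general growth blockers included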;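 note: wells of about 50 µL received 100 nL stock; 0% = vehicle wells and 100% = reference inhibitor wells; whole bacteria with a GFP reporter of the hypoxia response; strong numbers were not always called active; many hits fall short of the cut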
# Mtb hypoxia inh growth: also measured in Mtb hypoxia inh; calls as there; growth inhibition, %; measured here: M. tuberculosis growth (absorbance);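 0% = vehicle and 100% = reference antibiotic; read after six days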
# * hit, by the source's call; u = inconclusive; x = not tested or not shown.
SMILES,Sa RN4220 lethal,BJeLR lethal,ugtP null kill,PrP 5UTR inh,Bead autofluor,Mtb hypoxia inh,Mtb hypoxia inh growth
COc1ccc(-c2noc(-c3ccc(Br)o3)n2)cc1OC,5.2,-3,-1,-39,9623,-4,5
CN1C(=O)c2ccc(NC(=O)C3CC3)cc2C1=O,2.3,0,2,-18,6046,1,4
OC(COc1cccc2ccccc12)CN1CCN(c2ccccn2)CC1 (stereo not drawn),2.8,-1,-3,3,3793,x,x
COc1ccc(C(=O)N(CN2CCCC2=O)c2nccs2)cc1OC,5.5,9,9,-10,u,15,9
COc1ccc(NC(=O)COC(=O)CNC(=O)c2cccs2)cc1Cl,8.0,x,4,-17,3585,6,3
CCNC(=O)COC(=O)c1ccc(NS(=O)(=O)c2ccc3c(c2)OCCO3)cc1,-2.6,0,-1,-57,2506,-4,-5
c1ccc2c(CN3CCN(C4CCCCC4)CC3)c[nH]c2c1,-11,-8,-13,-10,3380,11,10
O=C(N/N=C1/CCS(=O)(=O)c2ccc(F)cc21)c1ccccn1,x,-3,x,-3,4528,x,x
Cc1ccsc1C=NNC(=O)CSCc1ccc(Cl)cc1,-12,x,-7,x,x,16,3
CN1C(C(=O)NCc2ccco2)=CC(c2ccc(F)cc2)=NS1(=O)=O,0.9,-9,9,-6,4585,15,7
Cc1noc(C)c1S(=O)(=O)Nc1c(C)n(C)n(-c2ccccc2)c1=O,7.6,14,11,-3,2458,x,x
O=C(c1cccc(C(F)(F)F)c1)C1CCCN(Cc2ncc[nH]2)C1 (stereo not drawn),5.5,-6,-3,-12,5067,9,-1
COc1ccc(-c2n[nH]c(C)c2-c2cc(OC)ccc2O)cc1,6.5,-2,-1,-9,4058,16,17
Cc1c(CN(C)Cc2cn(C)nc2-c2ccccc2F)[nH]c2ccccc12,6.0,-4,3,-16,4666,-4,-8
O=C(NC1(C(F)(F)F)NC(=O)N(c2ccccc2F)C1=O)c1ccncc1 (stereo not drawn),2.9,3,-1,-5,2295,5,4
O=C1c2ccccc2C(=O)N1CCc1nn[nH]n1,6.8,-1,5,7,5779,8,13
Cc1cc(C)n(N=Cc2cccc([N+](=O)[O-])c2)c(=O)c1,2.2,x,6,x,x,-5,16
CC(C)C(OC(=O)c1oc2ccccc2c1CSC1CCCCC1)C(=O)NC(N)=O (stereo not drawn),3.6,7,13,x,x,0,-6
Cc1ccc(NC(=O)COC(=O)c2ccc3c(c2)OCO3)cc1S(=O)(=O)N1CCCCC1,4.3,0,15,-18,1935,17,4
CC(=NNC(=O)c1cccc2ccccc12)c1ccccn1,22,x,7,x,x,0,11
O=C(O)Cc1ccc(NC(=O)C(c2ccccc2)c2ccccc2)cc1,-3.1,0,-1,-30,4530,11,2
Cc1c(CCC(=O)N2CCC[C@H]2C(=O)O)c(=O)oc2c(C)c3oc4c(c3cc12)CCCC4,9.4,-5,-20,-5,4201,x,x
O=[N+]([O-])c1ccccc1CN1CCN(S(=O)(=O)c2ccccc2)CC1,3.5,-4,5,-17,6134,22,5
CCOc1ccc(C(=O)CSc2nnc3ccccn23)cc1,6.4,14,-1,-78,3268,12,10
Cc1ccc(C(CC(=O)O)Nc2nc(N3CCCCC3)nc(N3CCCCC3)n2)cc1 (stereo not drawn),-0.7,-4,-7,0,2523,x,x
COc1ccc(NCC(=O)n2c(C)c(C)c3ccccc32)cc1,5.3,x,5,-15,5130,-2,-5
CCN(CC)S(=O)(=O)c1ccc(-c2nnc(SCC(C)=O)o2)cc1,0.2,-3,1,1,16485*,4,0
CCCn1c(N)c(N2CCCCC2)c(=O)n(CC(=O)Nc2ccccc2C(F)(F)F)c1=O,0.1,x,9,-14,3632,3,5
Cc1nc(C(F)(F)F)ccc1C(=O)NN1CCOCC1,0.9,6,0,-17,3709,7,8
CNC(=S)N1N=C(c2ccc(Br)cc2)CC1c1ccc(Br)cc1 (stereo not drawn),-1.4,-4,-12,-18,21159*,0,6
Cc1ccc(NS(=O)(=O)c2cc(C(=O)NCCCN(C)C)ccc2Cl)cc1Cl,0.7,x,7,2,7606,3,6
CCN(CC)C(=S)SC1CCCCN(C(=O)c2ccccc2)C1=O (stereo not drawn),4.3,-6,11,-27,5189,14,8
CCC(C)NC(=O)COC(=O)c1ccccc1OCC(=O)Nc1ccc(Br)cc1 (stereo not drawn),4.4,-5,-1,-1,2367,2,7
COc1cc(/C=C(/C#N)C(=O)NC(C)c2ccccc2)cc(OC)c1O (stereo not drawn),1.3,-7,4,2,5595,2,7
Cc1cc(-c2nn3c(C)nnc3s2)ccc1NC(=O)C(C)(C)C,7.6,0,2,-17,11157,12,12
COc1cc(C)c(NC(=S)NCCCN2CCOCC2)cc1OC,2.4,-1,-1,-17,4358,0,-5
Cc1c(S(=O)(=O)N2CCCCC2)c(=O)n(C)c(=O)n1C,-1.8,-3,6,-28,5969,5,-7
COc1ccc(C(=O)OCC(=O)NCC2CCCO2)c(F)c1 (stereo not drawn),-0.9,x,-1,-1,3938,-2,9
CC1Oc2ccccc2C=C1/C=N/Nc1ccc(C(=O)O)cc1 (stereo not drawn),x,-5,x,-90,3902,x,x
O=C(CCc1ccccc1)NC(=S)Nc1cccc(C(=O)O)c1,3.7,2,4,-45,6158,3,10
Cc1ccc(-n2cnc(N)c2C(=O)c2cccc([N+](=O)[O-])c2)cc1,2.3,-3,2,-32,4372,3,-6
CC1CN(C(=O)c2ccc(CNS(=O)(=O)c3cccc(Cl)c3)cc2)CC(C)O1 (stereo not drawn),3.3,0,2,-13,6331,10,-3
O=C1C(Cl)=C(Oc2ccccc2)C(=O)c2ccccc21,6.5,x,0,-14,4210,17,7
CCSc1ncc(Cl)c(C(=O)N(Cc2ccc(N(C)C)cc2)C2CCS(=O)(=O)C2)n1 (stereo not drawn),-3.2,8,7,-25,2512,x,x
O=C(COc1ccccc1-c1ccccc1)NN=C1CCCC1,2.6,11,0,-11,4196,5,-4
O=C(c1cc(-c2cccc(O)c2)on1)N1CCOCC1,-6.8,0,-5,-29,6548,5,12
Cc1cc(O)ccc1NC(=O)CCN1C(=O)c2ccc([N+](=O)[O-])cc2C1=O,2.3,11,4,-25,1945,9,4
COc1ccc(-c2csc(NC(=O)c3ccc(OCC(=O)N4CCOCC4)c(OC)c3)n2)cc1OC,35,10,26,-5,2499,4,-27
CN1C(=O)C2C(C3CC3)N3C(=O)CN(Cc4ccccn4)C(=O)[C@@]3(Cc3ccccc3)C2C1=O (stereo partly drawn),2.5,x,-1,x,x,6,5
CC(=O)N1CCc2c(sc(NC(=O)C3CCCN3S(=O)(=O)c3cccs3)c2C#N)C1 (stereo not drawn),1.5,3,0,5,u,1,5
CC(C)C[C@H](NC(=O)NC1CCCc2ccccc21)C(=O)O (stereo partly drawn),1.9,6,0,-20,4285,17,-3
Cc1ccc(CN2CCSCC2)c(C)c1,3.6,1,5,-12,2597,12,7
O=C(NN1C(=O)/C(=C/c2cccs2)SC1=S)c1ccncc1,6.8,2,3,-20,5717,19,4
NS(=O)(=O)c1ccc(Sc2ccc3c(c2)CCC3)nc1,-0.3,1,7,-24,3611,-1,10
CN(C)c1ccnc2sc3c(NCC(O)CO)ncnc3c12 (stereo not drawn),3.0,1,-9,0,2558,7,7
CN(Cc1ccc(C(C)(C)C)cc1)C(=O)c1ccc2c(c1)OCO2,2.7,x,8,-21,x,9,1
O=C(O)c1cccnc1SC1CC(=O)N(c2cccc(C(F)(F)F)c2)C1=O (stereo not drawn),0.6,5,4,3,5236,2,6
Cc1nc2ccccn2c1C(=O)NN=Cc1cc(C)n(-c2ccc(Cl)cc2)c1C,1.1,x,9,x,x,4,19
CC=CC=CC(=O)Nc1cccc(C2=NOC3(C2)CC(C(N)=O)N(C(=O)C(c2ccccc2)c2ccccc2)C3)c1 (stereo not drawn),4.2,x,-16,x,x,4,11
O=C1C(c2ccccc2)=[N+]([O-])c2ccccc21,22,0,50,-12,3094,7,8

# 2 entries picked at random from the list so far, as already listed:
SMILES,Sa RN4220 lethal,BJeLR lethal,ugtP null kill,PrP 5UTR inh,Bead autofluor,Mtb hypoxia inh,Mtb hypoxia inh growth
CN1C(=O)C2C(C3CC3)N3C(=O)CN(Cc4ccccn4)C(=O)[C@@]3(Cc3ccccc3)C2C1=O (stereo partly drawn),2.5,x,-1,x,x,6,5
Cc1ccc(CN2CCSCC2)c(C)c1,3.6,1,5,-12,2597,12,7

# Additional results
SMILES,Sa RN4220 lethal,BJeLR lethal,ugtP null kill,PrP 5UTR inh,Bead autofluor,Mtb hypoxia inh,Mtb hypoxia inh growth
C=COCCNC(=O)C(=O)NC(C)C,x,1,x,-15,3260,x,x
O=C(NC1CCc2ccccc21)c1cc(COc2ccc(F)cc2F)on1 (stereo not drawn),-5.3,-13,15,-2,2006,1,9
O=C(COc1ccc(C(=S)N2CCOCC2)cc1)N1CCCC1,0.4,-2,-5,-36,9250,0,10
COc1ccc(N2CC(C)Cn3c2nc2c3c(=O)[nH]c(=O)n2C)cc1 (stereo not drawn),8.9,-5,5,-13,2876,12,8
CCCn1c(N)c(C(=S)NC(=O)C2CC2)c(=O)n(C)c1=O,4.0,x,1,-34,2513,16,0
Cn1c(Cn2c(=O)sc3ccccc32)nnc1SCC(=O)Nc1ccccc1,4.1,-1,1,-29,6135,x,x
CC(C)C1Cc2c(sc3c2c(=O)n(Cc2ccccc2)c2nncn32)CO1 (stereo not drawn),-4.1,0,1,-25,3454,21,11
COc1ccc([N+](=O)[O-])cc1NC(=O)C(C)N1CCN(C(=O)c2ccco2)CC1 (stereo not drawn),3.0,5,-1,3,2589,3,0
CC(C)c1ccc(CNc2cc(N3CCCC3)ccc2[N+](=O)[O-])cc1,6.5,-5,1,-3,9880,13,5
CCOc1ccc(-n2c(SCC(=O)Nc3cc(C)on3)nc3c([nH]c4ccccc43)c2=O)cc1,-0.5,-16,5,-10,5915,3,4
CCC(=O)Nc1cccc(Oc2nc(C)cc(C)c2C#N)c1,6.0,-7,2,-4,4518,5,6
O=C1/C(=C\c2ccncc2)SC(=S)N1C1CCCCC1,-4.4,-12,-3,-9,2430,7,10
CCn1c(=O)cc(OCC(=O)Nc2cccnc2)c2ccccc21,20,0,-10,-19,5661,4,18
O=C(O)c1nc(NCCc2ccccc2)ncc1Cl,4.5,0,2,4,3074,-7,2
CC(C)c1ccc(C2CC(=O)N3CN(Cc4ccco4)CSC3=C2C#N)cc1 (stereo not drawn),3.8,3,0,-14,u,16,1
CSc1cccc(NC(=O)Nc2ccccc2C(N)=O)c1,6.4,-4,12,0,2975,12,10
CCC(c1nnnn1CCc1ccccc1)N(Cc1ccco1)Cc1cc2cc(C)cc(C)c2[nH]c1=O (stereo not drawn),2.9,0,13,-4,5115,x,x
CC(=O)N1c2c(cc(Br)cc2S(=O)(=O)NCc2cccnc2)CC1C (stereo not drawn),6.3,-2,10,-22,3333,6,2
O=C(Nc1ccc(N2CCN(Cc3ccccc3F)CC2)cc1)c1ccccc1[N+](=O)[O-],3.1,3,-3,-13,4243,0,16
COc1ccc(NC(C)=O)cc1NC(=O)c1cccc(S(=O)(=O)N2CCN(Cc3ccccc3)CC2)c1,x,-11,x,-10,4038,x,x
Brc1cnc(N2CCOCC2)nc1N1CCCCC1,16,-3,3,-31,9327,5,21
O=C(CSc1nnc(-c2ccncc2)n1CCc1ccccc1)NCc1ccccc1,3.5,0,3,-13,3687,2,3
CC(c1ccccc1)N1C(=O)C2C3CCC(C3)C2C1=O (stereo not drawn),5.0,-1,6,-33,2549,13,0
COc1cc2c(cc1OC)C(c1ccc(-c3ccc(Cl)cc3Cl)o1)=NCC2,6.5,-1,-5,-8,u,6,6
C=C1CCC2[C@](C)(CO)[C@H](O)CC[C@@]2(C)[C@@H]1/C=C/C1=CCOC1=O (stereo partly drawn),1.7,2,-25,-20,5074,x,x

# 4 compounds already listed, arranged by SMILES length, high to low.
SMILES,Sa RN4220 lethal,BJeLR lethal,ugtP null kill,PrP 5UTR inh,Bead autofluor,Mtb hypoxia inh,Mtb hypoxia inh growth
COc1cc2c(cc1OC)C(c1ccc(-c3ccc(Cl)cc3Cl)o1)=NCC2,6.5,-1,-5,-8,u,6,6
CC(c1ccccc1)N1C(=O)C2C3CCC(C3)C2C1=O (stereo not drawn),5.0,-1,6,-33,2549,13,0
CSc1cccc(NC(=O)Nc2ccccc2C(N)=O)c1,6.4,-4,12,0,2975,12,10
O=C(O)c1nc(NCCc2ccccc2)ncc1Cl,4.5,0,2,4,3074,-7,2
